# Beta cell apopt: beta cell apoptosis inhibition. INS-1E cytokine-induced death, ATP luminescence, 48 h; percent of positive-control rescue, neutral wells zero. protection from apoptosis, % (concentration not given with the values). 300,000 tested, 0.8% active;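 active = all replicates at 75% or more, or half of them and the mean; inconclusive = half reach 75% but not the mean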;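 note: 0% = cytokine-treated negative control wells and 100% = positive control rescue; higher means more ATP so stronger rescue from cytokine killing; wells of about 40 µL received 100 nL stock; the first replicate is given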
# AF4-AF9 inh: blocks AF4 peptide binding to human AF9 | P42568 | AlphaScreen, biotin-AF4 peptide binding to FLAG-AF9 | inhibition, % at 10 µM | 350,000 tested, 0.47% active | AID 651704;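 active = every replicate reaching a set inhibition limit, whatever the replicate mean, cut at about 25% in these data; inconclusive = mean inhibition reaches that limit but some replicates miss it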;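 note: 0% = plate neutral control median and 100% = total signal loss; the record names both 10 and 1 µM as test concentration; the first replicate is given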
# Target sequence (P42568 whole entry, looked up): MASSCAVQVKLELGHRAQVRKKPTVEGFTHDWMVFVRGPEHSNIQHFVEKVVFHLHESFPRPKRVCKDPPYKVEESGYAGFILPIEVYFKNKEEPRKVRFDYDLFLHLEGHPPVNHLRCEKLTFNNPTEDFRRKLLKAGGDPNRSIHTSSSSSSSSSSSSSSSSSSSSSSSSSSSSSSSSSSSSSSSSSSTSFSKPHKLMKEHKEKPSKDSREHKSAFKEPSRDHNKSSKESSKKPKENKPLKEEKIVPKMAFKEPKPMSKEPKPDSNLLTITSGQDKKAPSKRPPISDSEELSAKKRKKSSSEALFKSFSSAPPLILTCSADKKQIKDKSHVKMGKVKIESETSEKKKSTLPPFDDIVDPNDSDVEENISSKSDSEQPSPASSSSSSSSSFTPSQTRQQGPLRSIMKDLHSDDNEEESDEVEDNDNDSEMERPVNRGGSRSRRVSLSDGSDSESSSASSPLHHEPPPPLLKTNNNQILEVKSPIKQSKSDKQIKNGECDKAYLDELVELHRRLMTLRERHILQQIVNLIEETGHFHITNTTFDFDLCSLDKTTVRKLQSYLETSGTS
# LANA-H2A inh: blocks KSHV LANA binding to histone H2A/H2B | AID 2629 | Q9QR71 | cell-free LANA-H2A/H2B peptide, fluorescence polarization | inhibition, % (concentration not given with the values) | 320,000 tested, 0.6% active; in the data active = inhibition mostly above about 10%, no sharp cut-off; inactive = mostly below about 6.7%;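 note: stock transfer was 7.5 nL into about 10 µL; 0% = median of vehicle wells and 100% = median of positive control wells; one replicate is shown; the record names a cut of 25% in any replicate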
# Calb FLC: C. albicans growth modulation with fluconazole | C. albicans CaCi-2 (fluconazole-resistant clinical isolate) + fluconazole, Alamar Blue growth, 48 h | growth inhibition, % (test concentration not listed) | 300,000 tested, 0.57% active;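 active = most replicates above 75%; inconclusive = exactly half above 75%; inactive = most below 75%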;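 note: all wells also contain fluconazole at 8 µg/ml as a sub-toxic cotreatment; 0% = median of DMSO wells and 100% = median of geldanamycin control wells; wells of about 8 µL received 7.5 nL stock; the first replicate is given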
# Vif TR-FRET: HIV-1 Vif–A3G interaction blockers – biochemical, TR-FRET, GST-Vif 1-94, biotin-A3G peptide, dose response retest, primary screen (AID 1117319); TR-FRET GST-Vif / biotin-A3G peptide binding; higher % means a stronger effect; test concentration not given here; strong numbers were not always called active; inhibition, %, or IC50 in µM where a hit was titrated; 260,000 tested, 0.57% active;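 active = above the screen mean plus three standard deviations and confirmed in dose response; inconclusive = results disagree or hit not tested in dose response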;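 note: Vif residues 1-94 fused to GST binding biotinylated APOBEC3G peptide 110-148; 0% = full assay without inhibitor and 100% = GST in place of GST-Vif; retest series ran down from 100 µM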
# A1 inh: inhibitors of the anti-apoptotic protein A1, read as caspase activation. MEF A1-2A-BIM cells, Caspase-Glo 3/7 luminescence, 3 h; percent of clofoctol response, vehicle zero. caspase activation, % (no concentration beside the values). 330,000 tested, 0.066% active. AID 2462;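 active = over half of replicate activation scores above 10%, or exactly half above 10 with the replicate mean above 10; inconclusive = replicate mean below 10 yet half the replicates above 10; inactive = over half of replicates below 10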;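 note: wells of about 30 µL received 50 nL stock; many hits fall short of the cut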
# RanGTP-Imp inh: disruptors of Ran-importin-beta complex formation – biochemical, FRET, CFP-Ran, YFP-importin-beta, homogeneous, primary screen | cell-free CFP-Ran/YFP-importin-beta FRET ratio | 300,000 tested, 1.1% active | inhibition, % (concentration not given with the values);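 active = most replicates above 15%; inconclusive = exactly half above 15%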;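 note: 0% = DMSO wells and 100% = Ran loaded with GDP instead of GTP; wells of about 40 µL received 100 nL stock; the first replicate is given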
# T cruzi repl: T. cruzi replication inhibition. T. cruzi beta-gal in NIH3T3, luminescence, 90 h. inhibition, % (test concentration not listed). 300,000 tested, 1.4% active. AID 1885;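 active = mean inhibition across valid replicates above about 55%, limit read from the data; inconclusive = mean below that limit but half or more replicates reach it; inactive = mean below it, under half of replicates reach it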;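 note: signal also drops with host cell toxicity which is not excluded here; 0% = plate median of DMSO wells and 100% = zero luminescence signal; higher percent means less beta-gal luminescence so fewer parasites; stock transfer was 50 nL into about 50 µL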
# * hit, by the source's call; ? = inconclusive; nt = no result given; & = joins results of further samples; ! = repeats disagree.
SMILES,Beta cell apopt,AF4-AF9 inh,LANA-H2A inh,Calb FLC,Vif TR-FRET,A1 inh,RanGTP-Imp inh,T cruzi repl
O=C(Cc1ccccc1)c1c[nH]c(C(=O)NCCCn2ccnc2)c1,4,-1.3,-0.4,0,-2%,-0.3,0.3,-14
O=C(COc1ccc([N+](=O)[O-])cc1)NCC(c1cccs1)N1CCOCC1 (stereo not drawn),-4,0.4,-4.0,9,7%,1.0,2.4,-5
O=C(N/N=C/c1ccc(O)cc1O)C1CC1,-3,-2.2,3.9,-10,nt,0.4,-2.0,17
CCN(CCCNC(=O)CCNC(=O)Cn1cnc2ccccc2c1=O)c1cccc(C)c1,7,nt,7.4,4,-1%,-1.0,2.9,12
Cc1nn(-c2ccc(F)cc2)c2sc(C(=O)OCC(=O)N3CCC(C)CC3)cc12,0,nt,1.7,0,-10%,1.4,-2.8,-1
COc1ccccc1Nc1ncc(-c2cccs2)s1,-2,nt,3.7,-2,3%,-0.1,-3.3,10
COc1cc(C(=O)/C=C/c2cccnc2)c([N+](=O)[O-])cc1OC,-6,-2.4,7.1,11,nt,0.7,3.8,-15
Cc1ccc(C2=CSC3=NS(=O)(=O)CCN23)cc1,-1,0.5,0.6,-6,nt,0.4,0.8,-6
CCn1c(SCC(=O)NCC2CCCO2)nc2c([nH]c3ccccc32)c1=O (stereo not drawn),4,-1.5,-5.9,-3,nt,0.8,4.8,-12
CCc1ccccc1NC(=O)Cn1c(=O)n(-c2ccc(CC(=O)NCC3CCCO3)cc2)c(=O)c2ccccc21 (stereo not drawn),2,-9.5,-2.6,2,1%,1.0,-0.4,-8
CC(C)c1ccc(NC(=O)c2ccc(Br)o2)cc1,6,nt,-2.9,7,1%,0.8,-1.1,18
Cc1cc(SCC(=O)OCC(=O)N(CCC#N)c2ccccc2)nc2ccccc12,0,-2.5,3.9,-10,-9%,0.2,nt,5
CC(C)CC(NC(=O)C(NC(=O)OC(C)(C)C)C(C)C)C(=O)NC(CCC(=O)OCc1ccccc1)C(N)=O (stereo not drawn),-1,-7.2,21*!,3,-2%,1.1,0.0,-6
COc1ccccc1NS(=O)(=O)c1ccc2c(c1)OCCO2,nt,-1.7,nt,-4,nt,nt,-0.4,-1
Cc1ccc(N(CC(=O)NCCc2ccc(Cl)cc2)S(=O)(=O)c2c(C)noc2C)cc1,10,-7.2,-2.3,13,nt,0.4,3.7,8
Cc1ccc(NC(=O)N2CCC(c3nc4c(nnn4Cc4c(F)cccc4Cl)c(=O)[nH]3)CC2)cc1,3,-12,-1.2,18,-4%,0.3,2.4,5
CC(OC(=O)CNC(=O)C12CC3CC(CC(C3)C1)C2)C(=O)Nc1ccc(N2CCOCC2)cc1 (stereo not drawn),-7,nt,2.5,1,?,1.1,0.3,3
N#Cc1ccccc1CSC1=NCCS1,-4,-2.5,0.8,-7,-3%,1.3,-3.4,-17
O=C(COc1ccc(C(=O)c2ccccc2)cc1)NC1CCCCC1,-7,-2.1,3.2,-20,nt,-0.8,2.6,-42
COc1cccc(N=CC2=C(O)CC(C)(C)CC2=O)c1,-10,2.0,5.4,-3,nt,-0.7,2.8,-23
Cc1[nH]nc(SCC(=O)N(C)c2ccccc2)c1[N+](=O)[O-],-7,2.4,4.6,-4,nt,0.3,-5.6,2
CCn1c(NC(=O)c2ccc(F)cc2)c2ccccc2nc1=O,-4,nt,0.0,63,-2%,-0.6,-0.9,-33
Cc1ccc2c(c1)C1(OCCCO1)C(=O)N2CC#N,-3,-0.1,-5.3,9,nt,-0.9,6.1,-2
COc1ccc(C(=O)CCC(=O)Nc2ccc(Cl)cc2)cc1,nt,0.9,3.8,0,nt,-0.1,2.3,-2
Cc1cc([N+](=O)[O-])nn1CC(=O)NCCc1c[nH]c2ccccc12,0,2.7,-3.6,5,3%,0.5,1.3,-3

# (cont.)
SMILES,Beta cell apopt,AF4-AF9 inh,LANA-H2A inh,Calb FLC,Vif TR-FRET,A1 inh,RanGTP-Imp inh,T cruzi repl
CSc1ccccc1NC(=O)Nc1ccccc1,8,10,0.0,-6,-2%,-8.2,-2.9,4
Cc1ccc(NC(=O)CNc2ccc(Cl)c(Cl)c2)cc1S(=O)(=O)N(C)C,-1,1.8,-0.8,0,nt,0.3,0.2,-3
COc1ccc(-c2nnc(SC(C)C(=O)Nc3nccs3)n2-c2ccccc2)cc1OC (stereo not drawn),3,1.3,4.4,9,11%&2%,0.5,0.6,21
O=[N+]([O-])c1ccc2nc(CCCc3nc4ccc([N+](=O)[O-])cc4[nH]3)[nH]c2c1,-3,-1.3,-3.2,?,nt,0.3,4.9,-6
Cc1ccc(C(O)P(=O)(OCCC(C)C)c2ccc(N(C)C)cc2)cc1 (stereo not drawn),-2,3.7,0.5,8,6%,0.4,2.0,11
Cc1oc(-c2ccc(F)cc2)nc1CN1CCCC(C(=O)N2CCOCC2)C1 (stereo not drawn),nt,1.0,nt,-12,nt,nt,-2.7,0
NNC(=O)c1cc(-c2ccc(N)cc2)nc2ccc(Br)cc12,-3,-0.4,-7.0,-6,13%,-0.7,-11,31
Cc1c(C(=O)N(C)Cc2ccccc2)oc2ccc(S(=O)(=O)N3CCCC3)cc12,-1,nt,-4.1,19,4%,-0.1,-0.2,17
CC(=O)c1ccc(NS(=O)(=O)c2cc3c(cc2C)N(C)CCO3)cc1,-6,2.0,-3.2,-2,-4%,-0.2,3.6,0
COc1ccc(NC(=O)c2ccc(NC(=O)CCS(=O)(=O)c3cccs3)cc2)cc1,-2,5.3,0.0,5,nt,-0.6,-0.3,0
O=c1cc(N2CCCCCC2)[nH]c(=O)n1-c1ccccc1Cl,-5,nt,2.3,nt,-5%,0.3,nt,-23
Cc1cccc(N2CN(Cc3ccco3)CNC2=S)c1,0,nt,2.3,10,25%,1.3,0.5,-41
COc1ccc(C(=O)NCCn2cc(SCC(N)=O)c3ccccc32)cc1,0,3.7,0.3,0,0%,0.0,0.4,-5
COc1ccc(C)cc1NC(=O)c1cc(S(=O)(=O)N2CCOCC2)cn1C,1,5.3,-0.3,-3,nt,0.1,0.7,6
COc1cccc(NC(=O)C(C)Oc2ccccc2)c1 (stereo not drawn),-2,nt,-1.3,-28,1%,0.2,2.9,-4
COc1cccc(C2NC(=S)NC(C)=C2C(=O)c2ccccc2)c1OC (stereo not drawn),5,0.2,-3.8,6,6%,0.7,-2.9,-38
COc1ccc(Nc2ccncc2[N+](=O)[O-])cc1,-12,1.7,6.7,1,-2%,0.6,0.8,2
Cc1ccc(CN2C3=NCCCN3c3ccccc32)cc1,2,nt,-2.9,nt,4%,-0.1,nt,nt
Cc1ccccc1NC(=O)c1nnn(-c2ccc3c(c2)OCCO3)c1N,-6,-5.7,-1.7,-19,nt,0.9,5.7,-8
O=C(COC(=O)Cc1cccs1)Nc1ccccc1Cl,2,2.3,-1.1,-7,-9%,0.7,0.4,-21
Cc1cc[n+](-c2[nH]c(=O)sc2/C=N/N=C(\[O-])c2ccccc2)cc1,-2,1.0,-0.9,2,nt,0.7,0.5,-1
COC(=O)c1nn(-c2ccccc2)c(-c2ccccc2)c1C(=O)c1ccccc1,nt,nt,3.6,-6,3%,0.1,2.4,1
OCc1cn(-c2ccccc2)nc1-c1cc2ccccc2o1,-3,-3.4,-2.1,-8,nt,0.4,?,1
COC(=O)c1[nH]c2c(c1C)C(=O)CC(c1cc(OC)c(OC)c(OC)c1)C2 (stereo not drawn),12,-1.3,2.5,-4,1%,0.2,2.1,-6
CC(C)(C)c1ccc(OCC(=O)NN2Cc3ccccc3C2=N)cc1,-8,1.4,0.7,1,19%,2.0,nt,25

# Other structures follow:
SMILES,Beta cell apopt,AF4-AF9 inh,LANA-H2A inh,Calb FLC,Vif TR-FRET,A1 inh,RanGTP-Imp inh,T cruzi repl
CCC1Cc2c(nc(N)c3c(N)nc(N4CCOCC4)c(C#N)c23)O1 (stereo not drawn),-4,-0.5,0.8,1,-7%,0.1,-1.6,12
CC(=O)Oc1cc2oc(=O)cc(C)c2cc1Cl,-6,0.4,-3.0,4,-5%,-0.1,13,-11
CN(C(=O)COC(=O)c1cc(S(=O)(=O)N2CCOCC2)ccc1F)C1CCS(=O)(=O)C1 (stereo not drawn),-2,-6.3,-0.8,-1,-1%,0.8,2.4,1
O=C(O)c1ccc(COc2c(F)c(F)c(F)c(F)c2F)o1,-6,nt,-0.6,8,>100µM*,0.3,5.2,3
Cc1ccc(NS(=O)(=O)c2ccc3c(c2)NC(=O)CO3)cc1,nt,-0.4,nt,4,-1%,nt,-1.6,6
Cc1ccc2nc(C)c3c(c2c1)N(c1ccc(F)cc1)CC3,23,nt,2.7,-21,-11%,0.0,0.6,43
CCc1noc(C)c1C(=O)N1CCN(S(=O)(=O)c2ccc(Cl)s2)CC1,-1,-2.6,-5.7,2,3%,-0.3,0.6,-1
COc1ccc(OC)c(Cc2nnc(CCC(=O)NCc3nc4ccccc4s3)o2)c1,-6,1.6,-0.4,-4,-8%,0.1,5.0,-6
O=C(NCCN1C(=O)S/C(=C\c2cccnc2)C1=O)c1ccc(S(=O)(=O)N2CCCC2)cc1,6,-4.4,8.3,-8,-8%,1.8,2.2,3
CCOc1ccc(NC(=O)Nc2nc(SCC)ns2)cc1,10,-2.3,-3.3,-2,1%,1.0,3.9,3
COc1cccc(NS(=O)(=O)c2cc(C)ccc2OC)c1,-6,nt,-7.1,-8,?,0.2,1.5,-7
COCCNC(=O)COc1ccc(C)cc1C(=O)c1cc(C#N)c(=O)n(C2CC2)c1,4,-1.2,3.9,-4,nt,-0.1,-2.0,-4
O=C(O)CCCCn1c(SCc2ccccc2Cl)nc2ccsc2c1=O,nt,0.0,nt,36,3%,nt,-4.8,-2
Cc1ccc(NCc2nnc(SCC(=O)c3ccc4c(c3)OCCO4)o2)c(C)c1,nt,-3.4,-0.1,5,27%,-1.2,3.1,8
Cc1ccc(-c2noc(C3CCCN(C(=O)c4cccc(Cl)c4)C3)n2)o1 (stereo not drawn),-7,0.1,1.4,4,nt,0.0,-1.0,7
COc1cc(/C=N/N2CCN(c3ccccc3OC)CC2)ccc1OC(C)=O,-3,9.5,2.3,3,nt,0.0,0.0,-2
C=CCN(c1ccccc1OC)S(=O)(=O)c1cccc(C(=O)OCC(=O)c2c[nH]c3ccccc23)c1,-9,nt,3.2,-14,-7%,0.1,-2.1,36
O=C(CCS(=O)(=O)c1ccccc1)Nc1nc2cc3c(cc2s1)OCO3,-4,-7.2,-0.7,67,-11%,-0.6,0.7,2
CCOc1cc(C2C(C#N)=C(N)Oc3n[nH]c(-c4ccncc4)c32)cc([N+](=O)[O-])c1O (stereo not drawn),-2,-0.3,2.6,11,nt,0.8,5.9,8
CN(C)CCN1C(=O)C(O)=C(C(=O)c2cc3ccccc3o2)C1c1cccc(Br)c1 (stereo not drawn),-2,nt,-7.7,6,-12%&-38%,1.0,4.3,-2
CCCC(=O)N(CCN1CCOCC1)c1nc2c(OC)ccc(OC)c2s1,-1,3.7,-4.3,1,17%,-0.9,-5.4,2
CC[C@@H](C)[C@H](NC(=O)OC(C)(C)C)c1nnc(S(=O)(=O)Cc2cc(C)ccc2C)o1,-1,nt,3.2,-4,2%&2%,-1.0,-5.6,-54
CCCNC(=O)c1ccc(SC)cc1OC,nt,nt,1.3,21,11%,0.0,0.8,-2

# From PubChem BioAssay
